LASV entry inh – inhibitors of Lassa virus binding or cell entry | Lassa virus pseudotype entry inhibition, cell reporter; control for the full effect not named in the record | Potency, µM (titrated, usually from 37.9 µM), for inactives: at the highest dose activity change, negative = inhibition, actives largely listed as inhibitors | 300,000 compounds, 1.2% hits | AID 540256; active means well fitted inhibition curve with a large enough effect; inconclusive means small, poorly fitted or top-dose-only effect, or effect the other way; inactive means flat fitted curve, though single readings scatter; tested in HEK293 cells; also: % is scaled to controls: 0 for no effect and ±100 for the full control effect; nearly all actives have a fitted effect of over 50% in size; luciferase read-out
Marburg entry inh – blocks Marburg virus binding to or entry into cells | Marburg virus pseudotyped entry inhibition, cell reporter; control for the full effect not named in the record; about a third of the inactives were read at about 46 µM | AID 540276 | 300,000 compounds, 1.8% hits | Potency, µM (series often up to 37.8 µM), without a hit: at the highest dose activity change, negative = inhibition, hits mostly inhibitors; active = well fitted inhibition curve with a large enough effect; inconclusive = small, poorly fitted or top-dose-only effect, or effect the other way; inactive = flat fitted curve, though single readings scatter; tested in HEK293 cells; about a fifth of its hits are not listed in these tables; also: % is scaled to controls: 0 for no effect and ±100 for the full control effect; luciferase read-out
NS1 inh – blocks influenza NS1 protein function; S. cerevisiae slowed by influenza A NS1, growth recovery by OD600; Potency, µM (top dose mostly 46.1 µM), for inactives: top-dose activity, positive = more growth; 270,000 compounds, 0.4% hits; also: actives are rising curves; nearly all actives have a fitted effect of over 50% in size
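OD600 was taken as the measure of yeast growth restored by compound in an NS1-expressing S. cerevisiae strain. Cells had been washed out of glucose medium and diluted 1:100 into galactose -URA medium, pH 6.0.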
Cruzain noTriton – blocks cruzain activity in detergent-free assay; P25779; purified cruzain, Z-FR-AMC fluorescence, no detergent; Potency, µM, for inactives: max response, negative = inhibition, usual class: inhibitors; 200,000 compounds, 2.3% hits; active = well fitted curve in the direction sought with a large enough effect; inconclusive = small, poorly fitted or top-dose-only effect, or another doubt; inactive = no such curve, though single readings can be large; an effect the other way counts as inactive or inconclusive;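 also: plate controls were enzyme without inhibitor for no effect and buffer without enzyme for full effect; nearly all actives have a fitted effect of over 40% in size; top concentration of the series not given in the record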
Target sequence (P25779 123-467 limits assumed): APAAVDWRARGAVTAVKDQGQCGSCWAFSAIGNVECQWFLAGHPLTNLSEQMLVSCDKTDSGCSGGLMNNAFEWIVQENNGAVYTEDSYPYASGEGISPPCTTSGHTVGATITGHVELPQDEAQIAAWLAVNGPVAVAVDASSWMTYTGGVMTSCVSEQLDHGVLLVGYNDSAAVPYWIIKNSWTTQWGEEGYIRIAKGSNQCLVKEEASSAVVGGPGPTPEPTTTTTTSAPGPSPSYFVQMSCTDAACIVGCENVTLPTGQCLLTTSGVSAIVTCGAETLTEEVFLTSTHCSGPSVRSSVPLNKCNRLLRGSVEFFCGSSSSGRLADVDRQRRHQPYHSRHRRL
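Purified cruzain at 1.5 nM, pre-incubated 15 min with compound at room temperature in 100 mM sodium acetate pH 5.5, 5 mM DTT, 0.00005% Triton X-100. Reaction started with 2 uM Z-FR-AMC; AMC fluorescence increase over 60 s gives rate.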
RE007 growth inh – less growth of the S. pombe RE007 Vpr strain | 360,000 compounds, 0.21% hits | Potency, µM (doses to about 92.2 µM), inactives show at the top dose activity change, negative = less growth | S. pombe RE007 Vpr strain, BacTiter-Glo ATP luminescence, 24 h; control for the full effect not named in the record; active = well fitted falling curve with a large enough effect; inconclusive = small, poorly fitted or top-dose-only effect; inactive = no such curve, though single readings can be large or run the other way;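 also: % is scaled to controls: 0 for no effect and ±100 for the full control effect; nearly all actives have a fitted effect of over 50% in size; the assay follows cell death caused by Vpr and the record does not say whether a fall means rescue or toxicity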
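Fission yeast strain RE007, carrying one chromosomally integrated HIV-1 vpr copy, was seeded at OD 0.01 in PMG+AL medium with 23 nL pinned compound. After 24 h at 30 °C and 99% humidity, viability was read by BacTiter-Glo luminescence.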
2A StopGo – FMDV 2A StopGo reporter, luciferase signal | human cells with a luciferase reporter of 2A StopGo recoding; control for the full effect not named in the record | Potency, µM (series often up to 57.9 µM), without a hit: at the highest dose signal change, negative = less light | 410,000 compounds, 1.2% hits | AID 1159524; active = well fitted falling curve with a large enough effect; inconclusive = small, poorly fitted or top-dose-only effect; inactive = no such curve, though single readings can be large or run the other way; tested in HEK293T cells; also: % is scaled to controls: 0 for no effect and ±100 for the full control effect; nearly all actives have a fitted effect of over 45% in size; luciferase light after 4 h
Cruzain Triton – blocks cruzain activity in presence of Triton detergent. P25779. Potency, µM, for inactives: max response, negative = inhibition, hits mostly inhibitors. 200,000 compounds, 0.43% hits. purified cruzain, Z-FR-AMC fluorescence, 0.01% Triton; active = well fitted curve in the direction sought with a large enough effect; inconclusive = small, poorly fitted or top-dose-only effect, or another doubt; inactive = no such curve, though single readings can be large; an effect the other way counts as inactive or inconclusive;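 also: plate controls were neutral wells for no effect and buffer without enzyme for full effect; nearly all actives have a fitted effect of over 40% in size; top concentration of the series not given in the record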
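Sodium acetate buffer (100 mM, pH 5.5) containing 5 mM DTT and 0.01% Triton X-100 hosted 1.5 nM cruzain and test compound for 15 min at room temperature. Cleavage of 2 uM Z-FR-AMC was then tracked by fluorescence.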
SARS PLP yeast – SARS-CoV PLP inhibition in yeast. S. cerevisiae expressing SARS-CoV PLpro, growth rescue; control for the full effect not named in the record. Potency, µM (doses to about 32.9 µM), inactives show at the top dose activity, positive = growth rescue. 330,000 compounds, 0.19% hits; also: 0% is about no effect; nearly all actives have a fitted effect of over 55% in size; growth read by luminescence after 48 h
An asterisk follows results filed as active; ? = inconclusive; . = no result given; & = joins results of further samples; [ ] = another dose, or the depositor's remark. Unless noted, calls follow the shape of the dose curve; as a rule, active means well fitted rising curve with a large enough effect; inconclusive means small, poorly fitted or top-dose-only effect; inactive means no such curve, though single readings can be large or run the other way. Potency is read from the fitted curve at half-maximal effect.

Compound | LASV entry inh | Marburg entry inh | NS1 inh | Cruzain noTriton | RE007 growth inh | 2A StopGo | Cruzain Triton | SARS PLP yeast
O=C(c1cc(-c2ccccc2)on1)N1CCCCCC1 | 13µM* | ? | -14% | . | -8% | 34%[activator] | . | 2%
CCc1ncc(CO)n1Cc1cccc2ccccc12 | . | . | 0% | 1% | 0% | -5% | 6.1% | .
COc1ccccc1CNC(=O)c1cc2cc(S(=O)(=O)N3CCCCC3)ccc2n1C | ? | . | . | -2% | . | -31% | -3.1% | .
COC(=O)C1=C(C)NC(=O)NC1c1ccc(N2CCC(c3ccccc3)=N2)cc1 (stereo not drawn) | -11% | ? | 1% | . | 4% | -27% | . | 0%
O=C(Nc1ccc(S(=O)(=O)N2CCCCC2)cc1)C1CCN(C(=O)c2ccc(F)cc2)CC1 | -20% | ? | . | . | 2% | ? | . | -1%
Cn1cc(S(=O)(=O)N2CCCCCC2)cc1C(=O)N1CCN(c2ccc(Cl)cc2)CC1 | 2%[46.1 µM] | . | . | 2% | . | ? | -1.4% | .
COc1ccc(C(=O)Nc2nc(C)c(C)s2)cc1OC | 5% | ? | -21% | 8% | -9% | 11% | -2.4% | 19%
CCC(=O)c1ccc(N2CCN(S(=O)(=O)c3ccccc3)CC2)c(F)c1 | 7%[46.1 µM] | -11%[46.1 µM] | -2% | . | 14% | -26% | . | 0%
CCOc1ccc(C(=O)NCC(=O)OCc2cc(C(C)=O)ccc2OC)cc1 | 21% | 26%[46.1 µM] | -20% | 0% | 4% | -7% | -15% | 14%
O=C(c1ccco1)N1CCN(Cc2cccc(C(F)(F)F)c2)CC1 | . | . | -2% | . | 10% | -18% | . | -2%
Cc1cccc(-c2nc(CS(=O)CC(=O)NCc3ccc(Cl)cc3)c(C)o2)c1 (stereo not drawn) | 0%[46.1 µM] | 0%[46.1 µM] | . | ? | . | -19% | -6.0% | .
COc1ccc(NC(=O)C(=O)NCC2CCCN2S(=O)(=O)c2ccc(C)cc2)cc1 (stereo not drawn) | . | . | . | . | 21% | -23% | . | 3%
Cc1cccc(Oc2nc3ccccn3c(=O)c2/C=C(\C#N)C(=O)NC2CCS(=O)(=O)C2)c1C (stereo not drawn) | ? | ? | 0% | . | -4% | ? | . | 1%
Cc1ccc(C(=O)OCC(=O)c2c[nH]c3ccccc23)cc1 | 17% | ? | 10% | ? | -14% | 19% | -3.3% | -12%
COc1ccc(OC)c(NC(=O)CSc2ccc(-c3cccnc3)nn2)c1 | -10% | ? | -5% | . | 4% | -6% | . | -6%
CCCn1c(N)c(C(=O)CSc2nnc(Cc3ccccc3)o2)c(=O)n(C)c1=O | ? | ? | -8% | -9% | 4% | ? | -3.1% | 8%
CCn1ccnc1CN1CCC(CO)(CCOc2ccccc2)CC1 | -26% | ? | -3% | . | -15% | -19% | . | 0%
CCCN1CCN(c2ncnc3sc(C(=O)Nc4cccc(Cl)c4C)c(C)c23)CC1 | ? | . | . | 16µM* | . | 0% | 2.2µM* | .
N#CCc1ccc(OC(=O)c2cccnc2)cc1 | -2%[46.1 µM] | 3%[46.1 µM] | 3% | . | -3% | -8% | . | -1%
CCN(C(=O)c1ccc(S(=O)(=O)N2CCOCC2)cc1)C1CCS(=O)(=O)C1 (stereo not drawn) | 5% | 3% | . | . | 5% | -2% | . | .

Compound | LASV entry inh | Marburg entry inh | NS1 inh | Cruzain noTriton | RE007 growth inh | 2A StopGo | Cruzain Triton | SARS PLP yeast
CC(C)CC(=O)Nc1nc2ccc(S(C)(=O)=O)cc2s1 | . | . | 4% | . | 6% | 35%[activator] | . | -1%
N#CC1C(C#N)C2CCC1C1C2N1c1ccccc1 (stereo not drawn) | 12%[46.1 µM] | 10%[46.1 µM] | . | . | 12% | -15% | . | .
O=C(N/N=C/c1ccc2c(c1)OCO2)C1COc2ccccc2O1 (stereo not drawn) | ? | ? | 9% | -10% | 9% | . | -4.0% | 3%
CC(=O)OC(C)(C)C#CCN1CCCC1 | -2% | 3%&3% | 5% | -14% | 4% | . | 1.3% | 5%
O=C(CCC1CCCN(c2ncccn2)C1)NCc1ccc(F)c(F)c1 (stereo not drawn) | . | . | 1% | . | -4% | -4% | . | -2%
O=c1[nH]c(CSc2ncc(-c3ccc(F)cc3)n2Cc2ccco2)nc2ccccc12 | -2% | ? | -58% | -12% | 19% | ? | -4.4% | -3%
CCOc1ccc(N(CC(=O)OC)S(=O)(=O)c2c(C)noc2C)cc1 | . | . | -61% | -9% | 2% | -29% | 4.5% | -11%
O=C(c1cnccn1)N1CCN(c2ccccc2)CC1 | 1% | -1% | -2% | 9% | 5% | -4% | -0.7% | 0%
COC1CC(C)NC(=S)N1 (stereo not drawn) | 12% | ? | 1% | . | 20% | -14% | . | 1%
CCCCOc1ccc(C(=O)Nc2onc3c2CCCC3)cc1 | ? | ? | . | -11% | . | -2% | -12% | .
O=C(CSc1nc2ccccc2nc1Cc1ccc(Cl)cc1)N1CCCCC1 | ? | . | . | 9% | . | -24% | -4.4% | .
Cc1ccc(C)c(NC(=S)c2nc3ccccc3s2)c1 | 5% | 3% | 2% | ? | -8% | 55%[activator] | -4.2% | -4%
O=C(COC(=O)COc1ccccc1Cc1ccccc1)Nc1cccnc1Cl | -3% | 7% | -46% | ? | . | -4% | -7.5% | ?
COc1ccc(OC)c(NC(=O)c2cc3c(s2)-c2ccccc2SC3)c1 | 12%[46.1 µM] | 2%[46.1 µM] | . | ? | . | -3% | -4.5% | .
CCOc1ccc2nc(N/C(N)=N/C(=S)Nc3cccc(OC)c3)nc(C)c2c1 | ? | ? | 9% | . | 12% | -23% | . | -1%
O=C(CSc1nnc2ccccn12)c1ccccc1 | . | . | 4% | 11% | 9% | 56%[activator] | 3.3% | 4%
COc1ccc(C)cc1Nc1nc2ccccc2c2nnc(C)n12 | 1%[46.1 µM] | ? | . | 0% | . | -4% | 1.1% | .
CC(NC(=O)C(=O)N/N=C/c1ccc(Cl)cc1)c1ccccc1 (stereo not drawn) | -12%[46.1 µM] | -3%[46.1 µM] | . | . | 6% | 9% | . | 3%
O=C(NCc1ccccc1Br)C1CCCN(C(=O)N2CCOc3ccccc32)C1 (stereo not drawn) | -3%[46.1 µM] | . | . | 7% | . | -1% | -4.0% | .
N#Cc1c(-c2ccccc2)nc(N2CCCCCC2)[nH]c1=O | 4% | 10% | -11% | ? | 12% | -21% | 1.1% | 3%

Compound | LASV entry inh | Marburg entry inh | NS1 inh | Cruzain noTriton | RE007 growth inh | 2A StopGo | Cruzain Triton | SARS PLP yeast
Cc1cc(=O)n(C(NC(=O)c2ccccc2)C(=O)c2ccccc2)cn1 (stereo not drawn) | -8% | 2% | 11% | -4% | -4% | 33%[activator] | -1.6% | 5%
Cc1cc(OCC(=O)N2CCC(c3nc4ccccc4s3)CC2)ccc1Cl | 9%[46.1 µM] | 5%[46.1 µM] | . | ? | . | ? | -14% | .
Cc1ccccc1C(=O)NC1CCN(C(=O)Nc2ccccc2Cl)CC1 | . | . | -6% | . | 16% | -13% | . | 0%
COc1ccc2c(c1)c(C(C)=O)c(C)n2-c1ccc(C(C)=O)cc1 | 10%[46.1 µM] | 0%[46.1 µM] | -3% | . | 6% | -24% | . | 1%
CN(Cc1ccccc1)C(=O)c1cccc(NC(=O)c2ccco2)c1 | -17% | -20% | -7% | -10% | 0% | 11% | -1.3% | 5%
Cc1cc(-c2ccccc2)nc2oc3c(c12)NC(=O)CN(c1ccccc1)C3=O | 8% | 2%&2%[46.1 µM] | -2% | . | 5% | -23% | . | -1%
COCCNC(=O)C(c1ccc(C)o1)N(C(=O)Cn1nnc2ccccc21)c1ccccc1 (stereo not drawn) | . | . | -4% | . | 5% | -1% | . | 1%
Cc1nnc(SCC(=O)NC2CCCc3c2cnn3-c2ccc(F)cc2F)o1 (stereo not drawn) | 12% | -11% | 10% | . | 2% | 3% | . | 2%
O=C(c1ccc(COc2c(F)c(F)c(F)c(F)c2F)o1)N1CCN(Cc2ccc3c(c2)OCO3)CC1 | ? | ? | -14% | ? | -3% | -30% | 28µM* | -23%
CCOc1ccc(CCNC(=O)c2ccc3c(c2)N(Cc2ccccc2)C(=O)c2ccccc2S3=O)cc1OCC (stereo not drawn) | ? | ? | . | -7% | . | -28% | 2.7% | .
CCOc1ccc(S(=O)(=O)N(CC(=O)NCc2ccncc2)c2ccc(C)cc2)cc1 | -15% | -29%[46.1 µM] | -1% | . | -1% | -10% | . | 3%
CS(=O)(=O)N1CCc2cc(C(=O)Nc3ccc(Cl)c(C(F)(F)F)c3)ccc21 | ? | ? | . | 2% | . | -13% | -13% | .
O=C(CNc1ccccc1)NN=C1CCCC1 | -1% | 3%[46.1 µM] | . | . | 4% | 3% | . | 0%
CCOc1ccc(/C=N/N2C(C)CCCC2C)cc1 (stereo not drawn) | 6%[46.1 µM] | -19%[46.1 µM] | 9% | . | -9% | 13% | . | 1%
CCn1c(COc2ccc(C)cc2)nnc1SCc1nc2ccccc2[nH]1 | -14% | ? | -5% | -7% | 12% | ? | -5.4% | 1%
COc1ccc(OC)c(/C=N/NC(=O)CNC(=O)c2ccc(S(=O)(=O)N3CCCC3)cc2)c1 | ? | 10%[46.1 µM] | . | . | -3% | -16% | . | 0%
CCC(C)c1ccccc1OCCCCN1CCCC1 (stereo not drawn) | ? | ? | -10% | 4% | 16% | ? | -2.2% | 0%
O=C(CSc1nnnn1C1CC2CCC1C2)Nc1ccnc2ccccc12 (stereo not drawn) | ? | ? | -108% | 1% | -4% | 40µM* | -5.7% | -22%
O=C(CCC(=O)N1CCSc2ccccc21)NCc1cccc(Br)c1 | . | . | -17% | . | 10% | -5% | . | 0%
COc1ccc(C(=O)NCCCNC(=O)c2ccco2)cc1OC | 3%[46.1 µM] | -16%[46.1 µM] | -6% | . | 4% | 1% | . | 0%

Assay outcomes as filed in PubChem BioAssay.
